Calb FLC: affects C. albicans growth with fluconazole; C. albicans CaCi-2 (fluconazole-resistant clinical isolate) + fluconazole, Alamar Blue growth, 48 h; growth inhibition, % (no concentration beside the values); 0.57% of 300,000 active; AID 1979;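 active = most replicates above 75%; inconclusive = exactly half above 75%; inactive = most below 75%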;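 also: all wells also contain fluconazole at 8 µg/ml as a sub-toxic cotreatment; 0% = median of DMSO wells and 100% = median of geldanamycin control wells; wells of about 8 µL received 7.5 nL stock; the first replicate is given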
LANA-H2B inh: blocks KSHV LANA binding to histone H2A/H2B. Q9QR71. inhibition, % (concentration not given with the values). cell-free LANA-H2A/H2B peptide, fluorescence polarization. 0.6% of 320,000 active; in the data active = inhibition mostly above about 10%, no sharp cut-off; inactive = mostly below about 6.7%;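 also: stock transfer was 7.5 nL into about 10 µL; 0% = median of vehicle wells and 100% = median of positive control wells; one replicate is shown; the record names a cut of 25% in any replicate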
Target sequence (Q9QR71 whole entry, looked up): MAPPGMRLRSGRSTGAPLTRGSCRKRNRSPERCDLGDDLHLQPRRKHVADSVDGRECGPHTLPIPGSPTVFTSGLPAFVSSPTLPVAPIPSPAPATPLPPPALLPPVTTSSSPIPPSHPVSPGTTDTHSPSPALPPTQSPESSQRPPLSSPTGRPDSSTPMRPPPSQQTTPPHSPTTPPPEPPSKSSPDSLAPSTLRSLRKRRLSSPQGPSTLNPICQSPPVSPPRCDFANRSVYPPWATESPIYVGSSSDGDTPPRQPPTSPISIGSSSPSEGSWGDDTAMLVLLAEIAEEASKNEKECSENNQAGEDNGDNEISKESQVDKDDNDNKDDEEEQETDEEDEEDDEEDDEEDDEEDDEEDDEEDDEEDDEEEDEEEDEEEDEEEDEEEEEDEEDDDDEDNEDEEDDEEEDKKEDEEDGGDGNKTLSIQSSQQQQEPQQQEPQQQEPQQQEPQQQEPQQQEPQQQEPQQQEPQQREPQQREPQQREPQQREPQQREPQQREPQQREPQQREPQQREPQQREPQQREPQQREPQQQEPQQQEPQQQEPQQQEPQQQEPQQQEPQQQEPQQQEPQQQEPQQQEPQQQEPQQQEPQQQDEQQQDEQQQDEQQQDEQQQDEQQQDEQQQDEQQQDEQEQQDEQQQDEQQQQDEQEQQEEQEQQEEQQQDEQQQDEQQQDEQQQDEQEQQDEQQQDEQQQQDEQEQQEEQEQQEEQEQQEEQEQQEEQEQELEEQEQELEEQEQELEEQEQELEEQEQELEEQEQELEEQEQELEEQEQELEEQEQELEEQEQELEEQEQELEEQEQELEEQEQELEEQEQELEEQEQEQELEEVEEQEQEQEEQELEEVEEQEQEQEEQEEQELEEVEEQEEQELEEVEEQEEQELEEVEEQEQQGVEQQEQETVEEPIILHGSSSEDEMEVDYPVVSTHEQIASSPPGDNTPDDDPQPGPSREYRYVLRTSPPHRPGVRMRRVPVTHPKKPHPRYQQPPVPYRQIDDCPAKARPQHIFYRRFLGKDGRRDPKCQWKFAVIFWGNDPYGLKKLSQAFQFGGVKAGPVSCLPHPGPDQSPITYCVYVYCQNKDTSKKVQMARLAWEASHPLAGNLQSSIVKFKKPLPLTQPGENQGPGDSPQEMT
ALR H2O2 inh: human ALR oxidase inhibition via reduced H2O2; inhibition, % (no concentration beside the values); purified ALR, DTT oxidation, H2O2 HRP-luminol luminescence; 3.8% of 290,000 active;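 active = mean and each replicate at 75% or more; inconclusive = only one of the two met; inactive = neither met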;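 also: stock transfer was 7.5 nL into about 7.5 µL; 0% = neutral wells and 100% = wells with inactivated enzyme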
B2AR ag: activates human beta-2 adrenergic receptor causing internalization; response, % (no concentration beside the values); 0.43% of 340,000 active; AID 504454; Am2.2-beta2AR cells, FAP receptor internalization, flow cytometry; reference of the scale not given here;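 active = response above a set limit, near 3 SD of response in nonfluorescent compounds, cut at about 42% in these data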;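 also: stock transfer was 100 nL into about 11 µL; a reference agonist was the positive control; negative values mostly stem from fluorescent compounds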
HNF4A DNA FP: change in binding of human HNF4 alpha to DNA | P41235 | HNF4a-FITC DNA binding, fluorescence polarization, 1 h | activity change, % at 10 µM | 0.3% of 360,000 active; in the data active = activity change above about 30%, passing the limit was not always enough;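 also: controls were the assay level and a saturating level of protein; the project sought stronger binding though the title names inhibitors; some compounds called inactive have numbers as strong as hits; positive values seem to mean higher polarization but the record does not say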
RanGTP-Impb inh: disruptors of Ran-importin-beta complex formation – biochemical, FRET, CFP-Ran, YFP-importin-beta, homogeneous, primary screen; cell-free CFP-Ran/YFP-importin-beta FRET ratio; inhibition, % (test concentration not listed); 1.1% of 300,000 active;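 active = most replicates above 15%; inconclusive = exactly half above 15%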;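 also: 0% = DMSO wells and 100% = Ran loaded with GDP instead of GTP; wells of about 40 µL received 100 nL stock; the first replicate is given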
Vif A3G: HIV-1 Vif–A3G interaction blockers – biochemical, TR-FRET, GST-Vif 1-94, biotin-A3G peptide, dose response retest, primary screen (AID 1117319); inhibition, %, or IC50 in µM where a hit was titrated; 0.57% of 260,000 active; TR-FRET GST-Vif / biotin-A3G peptide binding; higher % means a stronger effect; test concentration not given here; strong numbers were not always called active;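 active = above the screen mean plus three standard deviations and confirmed in dose response; inconclusive = results disagree or hit not tested in dose response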;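 also: Vif residues 1-94 fused to GST binding biotinylated APOBEC3G peptide 110-148; 0% = full assay without inhibitor and 100% = GST in place of GST-Vif; retest series ran down from 100 µM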
Numbers without * were called inactive; i = inactive; u = inconclusive; x = no result given.

Every second line gives: Calb FLC	LANA-H2B inh	ALR H2O2 inh	B2AR ag	HNF4A DNA FP	RanGTP-Impb inh	Vif A3G
> COCCCn1c(C)c(C(C)=O)cc(NC(=O)c2ccccc2)c1=O
    -8	-1.3	-11	-16	-4.7	0.3	-3%
> COc1ccc(/C=C/C(=O)Nc2cccc(S(=O)(=O)NC3=NCCCCC3)c2)c(OC)c1
    x	5.7	-6	8	-1.9	x	-2%
> COc1cc2c(cc1OC)CN(C(=O)c1cccc([N+](=O)[O-])c1)CC2
    -3	-0.2	-17	1	0.1	4.1	8%
> O=P(O)(O)c1cc(-c2ccccc2)oc1-c1ccccc1
    1	-4.0	-5	-1	6.2	1.0	-12%
> Cc1cc(NC(=O)c2cccs2)ncc1NC(=O)C(C)(C)C
    -2	-3.4	x	-11	-2.8	-0.4	x
> COc1ccc(-c2csc3ncnc(Oc4ccc5c(C)cc(=O)oc5c4)c23)cc1
    -1	-2.6	x	-3	-0.7	u	-29%
> Cc1nnc(Nc2ccc(O)cc2)[nH]c1=O
    0	1.8	99*	-2	-4.7	-4.0	u
> COc1cc(/C=N/Nc2nc(C)cc(=O)[nH]2)ccc1OC(=O)c1cccnc1
    -26	-2.1	45	0	-2.3	3.0	17%
> Cc1cc(C(=O)O)ccc1[N+](=O)[O-]
    x	i	-9	10	5.6	x	x
> COc1cccc(NC(=O)COc2ncnc3sc(C)c(C)c23)c1
    -11	1.9	-7	-10	3.0	6.1	1%
> COc1cc(C(=O)O[C@H]2CC(C)=CC[C@@]3(C)CC[C@@](O)(C(C)C)[C@H]23)ccc1O
    15	5.2	6	6	-0.1	-1.0	1%
> CCn1c(SCC(=O)Nc2nccs2)nnc1-c1ccco1
    u	1.5	-4	5	-5.5	-0.4	-6%
> CCc1ccc(-n2c(O)cnc2Nc2nc(C)cc(C)n2)cc1
    -9	-3.5	-9	4	-3.0	-4.3	3%
> CN1CCN(C(=O)CN2C(=O)CC(C)(C)S(=O)(=O)c3ccccc32)CC1
    6	-5.3	x	0	0.4	4.2	-2%
> CC(C)(C)c1ccc(OCCCC(=O)NNC(=O)c2ccccc2O)cc1
    81*	3.6	-2	-1	0.2	6.3	-3%
> CN(C)CCCNc1ccc(-c2cc(Nc3cccc(Cl)c3)ncn2)cn1
    -12	-2.2	-7	19	-0.7	4.2	-4%
> CCSc1nc2sc3c(c2c(=O)[nH]1)CCCC3
    10	4.2	-7	4	-3.1	4.0	6%
> COc1ccccc1-c1cc(C(=O)Nc2cccnc2Cl)no1
    -4	2.3	-1	-3	5.6	0.0	10%
> Cn1nc(C(F)(F)F)c2cc(NC(=O)OCc3ccc(F)cc3)sc21
    -12	-2.4	3	6	-1.1	7.4	-3%
> COc1ccc(N2CCN(Cc3cc(=O)c(OCC(=O)NC4CCCC4)co3)CC2)cc1
    -2	3.0	x	-1	-0.2	3.0	-4%
> COc1cc(Cl)ccc1OCc1cc(C(=O)N2CCN(C)CC2)no1
    2	2.8	-2	-11	5.7	0.3	x
> Cc1cc(C(=O)NCC(=O)OCC(=O)NCC2CCCO2)ccc1[N+](=O)[O-] (configuration not stated)
    x	i	-4	3	3.6	x	-7%
> COc1ccc(-c2cc(C(F)(F)F)n3ncc(C(=O)NCc4ccco4)c3n2)cc1
    8	2.3	-20	6	3.1	-0.2	16%
> O=C(Cn1c(=O)oc2ccccc21)N1CCN(c2ccc(N3CCOCC3)nn2)CC1
    -12	-8.7	3	4	-5.3	4.3	4%
> COc1ccc(/C=C/C(=O)OCC(=O)c2c[nH]c3ccccc23)cc1
    x	-5.6	0	2	2.9	x	-7%
> COc1ccc(CC(=O)OC(C)CN2CCCC2)cc1 (configuration not stated)
    2	-3.0	-6	20	1.4	3.6	u
> COc1ccc(OCC(=O)Nc2ccc3c(c2)C(=O)NC3=O)cc1
    11	0.8	x	9	0.2	u	x
> Cn1nc(-c2ccc(Cl)cc2)c2cc(C(=O)N3CCOCC3)sc21
    -4	-6.2	95*	-9	0.5	-5.7	-4%
> Cc1ccc(-n2ccc(-c3nn(-c4ccccc4)ccc3=O)n2)cc1
    -6	1.2	13	-26	0.1	4.2	10%
> Cc1cc(C)cc(N(CC(=O)Nc2ccc(C(F)(F)F)cc2)S(=O)(=O)c2c(C)[nH]c(=O)[nH]c2=O)c1
    9	x	34	-6	2.9	1.7	x
> O=C(Nc1ccccc1)Nc1ccno1
    -14	2.4	4	1	10	-0.1	x
> CCOc1ccc(-c2n[nH]c(=S)n2/N=C/c2cc3c(cc2[N+](=O)[O-])OCO3)cc1
    -3	-1.8	84*	-8	-2.5	u	2%
> Cc1c(N(C(=O)c2cnccn2)C2(C(=O)NC3CCCC3)CCCCC2)c(=O)n(-c2ccccc2)n1C
    -6	-2.0	x	-3	3.4	2.2	-7%
> Nc1ccc(C(=O)N/N=C/c2ccccc2)cc1
    -19	2.1	-6	-3	2.1	0.3	10%
> COCCn1c(SCC(=O)Nc2c(C)n(C)n(-c3ccccc3)c2=O)nc2ccccc2c1=O
    x	-0.3	0	8	-2.4	x	-9%
> COc1ccc(C(=O)NC(=S)Nc2cc3oc4ccccc4c3cc2OC)cc1
    u	6.0	-7	-2	-0.3	0.6	x
> C[C@H](CO)N1C[C@H](C)[C@@H](CN(C)Cc2ccc(Oc3ccccc3)cc2)Oc2c(NS(=O)(=O)c3cn(C)cn3)cccc2C1=O
    x	0.9	4	-16	-4.1	x	x
> Cc1noc(C)c1COC(=O)C1(c2cccc(F)c2)CCCC1
    18	-3.4	-6	-2	-4.3	-3.0	0%
> COc1ccc(NC(=O)C2Cc3cc(S(=O)(=O)N4CCCCC4)ccc3N2C(C)=O)cc1Cl (configuration not stated)
    -4	0.8	-7	9	-1.6	-1.0	x
> C/C=C/c1ccc(O)c(OC)c1
    x	6.8	x	0	7.2	x	x
> N#Cc1ccccc1S(=O)(=O)N1CCN(CC(O)c2ccccc2)CC1 (configuration not stated)
    -5	3.2	-5	-2	3.3	2.8	0%
> CC(C)OC(=O)c1cccc(C(=O)O)n1
    -3	-7.1	-11	3	1.0	-2.4	70%
> O=C(CC1Oc2ccccc2NC1=O)NCc1ccc(Cl)cc1 (configuration not stated)
    0	3.3	-38	17	0.7	1.6	3%
> CCNc1ncnc2c1cnn2C1CCCCO1 (configuration not stated)
    x	x	x	-1	2.0	x	-1%
> Cc1oc2cc3oc(=O)c(CCC(=O)NCc4ccccn4)c(C)c3cc2c1C
    -4	-5.4	3	8	0.9	-0.7	x
> COc1cccc(-c2csc(N3CCN(C(=O)C4CCCCC4)CC3)n2)c1
    7	x	x	6	0.2	0.9	4%
> Cc1cn2c(-c3cccnc3)nnc2s1
    10	0.9	-17	3	2.2	-2.2	0%
> COc1ccccc1OC(=O)c1cc(Cl)nc2ccccc12
    4	-2.5	-2	-5	-0.4	0.3	-3%
> COc1ccc(OC)c(S(=O)(=O)N2CCC(C(=O)Nc3cccc(C)c3)CC2)c1
    -18	-4.1	-9	3	3.8	1.7	2%
> COc1cccc(/C=c2\s/c(=C\C(=O)C(C)(C)C)[nH]c2=O)c1
    -2	-3.5	-2	-1	0.8	5.1	15%
> CCOc1ccc(NC(=O)NNC(=O)c2ccc(Cl)cc2Cl)cc1
    1	-3.8	1	-4	1.0	-2.8	32%
> CN(Cc1ccccc1)C(=O)CN1C(=O)c2ccccc2C1=O
    -5	4.2	14	-4	0.9	6.7	-4%
> Cc1cc(OCC(=O)OCC(=O)Nc2cccnc2Cl)ccc1Cl
    x	x	x	-6	2.0	x	-2%
> O=C(CSc1ccc(-c2ccco2)nn1)N1CCCCC1
    7	7.9	-3	-9	-0.9	0.1	17%
> O=C(Cn1nnc(-c2ccccc2F)n1)OCC(=O)c1ccccc1
    -3	3.9	93*	5	0.2	-2.5	x
> C=CCSc1nc(C)cc2c1C(=O)OC2
    -4	3.7	53	-13	-1.1	7.4	x
> Cc1ccc(S(=O)(=O)N2CCCC2C(=O)Nc2cc(C)on2)cc1 (configuration not stated)
    16	1.2	-5	4	4.6	u	23%
> O=C1CC(NC(=O)C(F)(F)F)=NN1c1ccccc1
    -11	3.3	24	7	0.7	0.3	15%
> CC(C)CCNC(=O)CO/N=C/c1ccccc1OC(F)F
    1	-2.8	-9	-8	-5.0	5.2	5%
> O=C1NC2c3c(I)sc(I)c3C(=O)C2O1 (configuration not stated)
    x	x	x	25	-90	x	-136%

Next section:
Every second line gives: Calb FLC	LANA-H2B inh	ALR H2O2 inh	B2AR ag	HNF4A DNA FP	RanGTP-Impb inh	Vif A3G
> COc1cccc(-c2nc(N3CCCC3)c3ccccc3n2)c1O
    4	0.5	5	-9	-0.5	u	x
> N#Cc1c(-c2ccccc2)nc(SCC(=O)NC2CCCCC2)[nH]c1=O
    -7	-10	55	-6	-5.3	x	x
> Cc1ccc(/C=N/NC(=O)c2nnn(-c3nonc3N)c2C(C)C)o1
    0	4.0	2	2	4.9	7.0	u
> Cc1cc(C)cc(N2CC(O)Cn3c2nc2c3c(=O)[nH]c(=O)n2C)c1 (configuration not stated)
    4	-1.0	9	-5	2.2	-0.2	2%
> O=C(Nc1cccc2ncccc12)c1cccc(Br)c1
    -13	5.5	-18	4	-2.0	-0.5	-1%
> CSc1ccc(/C=C(/NC(=O)c2ccco2)C(=O)N2CCOCC2)cc1
    3	-4.7	-1	-3	2.4	2.3	4%
> COc1ccccc1-c1noc(-c2ccncc2)n1
    5	6.1	-7	-6	-2.0	7.5	-1%

Some of the entries above, set out differently.
smiles	Calb FLC	LANA-H2B inh	ALR H2O2 inh	B2AR ag	HNF4A DNA FP	RanGTP-Impb inh	Vif A3G
O=C(Cn1c(=O)oc2ccccc21)N1CCN(c2ccc(N3CCOCC3)nn2)CC1	-12	-8.7	3	4	-5.3	4.3	4%
COc1ccc(/C=C/C(=O)OCC(=O)c2c[nH]c3ccccc23)cc1	x	-5.6	0	2	2.9	x	-7%
COc1ccc(CC(=O)OC(C)CN2CCCC2)cc1 (configuration not stated)	2	-3.0	-6	20	1.4	3.6	u
COc1ccc(OCC(=O)Nc2ccc3c(c2)C(=O)NC3=O)cc1	11	0.8	x	9	0.2	u	x
Cn1nc(-c2ccc(Cl)cc2)c2cc(C(=O)N3CCOCC3)sc21	-4	-6.2	95*	-9	0.5	-5.7	-4%
Cc1ccc(-n2ccc(-c3nn(-c4ccccc4)ccc3=O)n2)cc1	-6	1.2	13	-26	0.1	4.2	10%
Cc1cc(C)cc(N(CC(=O)Nc2ccc(C(F)(F)F)cc2)S(=O)(=O)c2c(C)[nH]c(=O)[nH]c2=O)c1	9	x	34	-6	2.9	1.7	x
O=C(Nc1ccccc1)Nc1ccno1	-14	2.4	4	1	10	-0.1	x
CCOc1ccc(-c2n[nH]c(=S)n2/N=C/c2cc3c(cc2[N+](=O)[O-])OCO3)cc1	-3	-1.8	84*	-8	-2.5	u	2%
Cc1c(N(C(=O)c2cnccn2)C2(C(=O)NC3CCCC3)CCCCC2)c(=O)n(-c2ccccc2)n1C	-6	-2.0	x	-3	3.4	2.2	-7%
Nc1ccc(C(=O)N/N=C/c2ccccc2)cc1	-19	2.1	-6	-3	2.1	0.3	10%
COCCn1c(SCC(=O)Nc2c(C)n(C)n(-c3ccccc3)c2=O)nc2ccccc2c1=O	x	-0.3	0	8	-2.4	x	-9%
COc1ccc(C(=O)NC(=S)Nc2cc3oc4ccccc4c3cc2OC)cc1	u	6.0	-7	-2	-0.3	0.6	x
C[C@H](CO)N1C[C@H](C)[C@@H](CN(C)Cc2ccc(Oc3ccccc3)cc2)Oc2c(NS(=O)(=O)c3cn(C)cn3)cccc2C1=O	x	0.9	4	-16	-4.1	x	x
